Source: PubChem (several laboratories)
A1 inh = inhibitors of the anti-apoptotic protein A1, read as caspase activation; MEF A1-2A-BIM cells, Caspase-Glo 3/7 luminescence, 3 h; percent of clofoctol response, vehicle zero; caspase activation, % (no concentration beside the values); 0.066% of 330,000 active; AID 2462;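 active = over half of replicate activation scores above 10%, or exactly half above 10 with the replicate mean above 10; inconclusive = replicate mean below 10 yet half the replicates above 10; inactive = over half of replicates below 10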;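 note: wells of about 30 µL received 50 nL stock; many hits fall short of the cut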
AF4-AF9 inh = MLL-AF4/AF9 protein interaction inhibition; inhibition, % at 10 µM; AlphaScreen, biotin-AF4 peptide binding to FLAG-AF9; P42568; 0.47% of 350,000 active; AID 651704;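 active = every replicate reaching a set inhibition limit, whatever the replicate mean, cut at about 25% in these data; inconclusive = mean inhibition reaches that limit but some replicates miss it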;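 note: 0% = plate neutral control median and 100% = total signal loss; the record names both 10 and 1 µM as test concentration; the first replicate is given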
T cruzi repl = blocks replication of Trypanosoma cruzi | T. cruzi beta-gal in NIH3T3, luminescence, 90 h | inhibition, % (no concentration beside the values) | 1.4% of 300,000 active;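 active = mean inhibition across valid replicates above about 55%, limit read from the data; inconclusive = mean below that limit but half or more replicates reach it; inactive = mean below it, under half of replicates reach it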;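 note: signal also drops with host cell toxicity which is not excluded here; 0% = plate median of DMSO wells and 100% = zero luminescence signal; higher percent means less beta-gal luminescence so fewer parasites; stock transfer was 50 nL into about 50 µL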
Beta apoptosis = blocks beta cell apoptosis. INS-1E cytokine-induced death, ATP luminescence, 48 h; percent of positive-control rescue, neutral wells zero. protection from apoptosis, % (test concentration not listed). 0.8% of 300,000 active. AID 435005;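 active = all replicates at 75% or more, or half of them and the mean; inconclusive = half reach 75% but not the mean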;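 note: 0% = cytokine-treated negative control wells and 100% = positive control rescue; higher means more ATP so stronger rescue from cytokine killing; wells of about 40 µL received 100 nL stock; the first replicate is given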
Calb FLC = C. albicans growth modulation with fluconazole | C. albicans CaCi-2 (fluconazole-resistant clinical isolate) + fluconazole, Alamar Blue growth, 48 h | growth inhibition, % (test concentration not listed) | 0.57% of 300,000 active | AID 1979;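 active = most replicates above 75%; inconclusive = exactly half above 75%; inactive = most below 75%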;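 note: all wells also contain fluconazole at 8 µg/ml as a sub-toxic cotreatment; 0% = median of DMSO wells and 100% = median of geldanamycin control wells; wells of about 8 µL received 7.5 nL stock; the first replicate is given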
Vif TR-FRET = HIV-1 Vif–A3G interaction blockers – biochemical, TR-FRET, GST-Vif 1-94, biotin-A3G peptide, dose response retest, primary screen (AID 1117319) | TR-FRET GST-Vif / biotin-A3G peptide binding; higher % means a stronger effect; test concentration not given here; strong numbers were not always called active | one-dose inhibition, %; IC50 in µM for titrated hits | 0.57% of 260,000 active;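 active = above the screen mean plus three standard deviations and confirmed in dose response; inconclusive = results disagree or hit not tested in dose response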;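 note: Vif residues 1-94 fused to GST binding biotinylated APOBEC3G peptide 110-148; 0% = full assay without inhibitor and 100% = GST in place of GST-Vif; retest series ran down from 100 µM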
LANA-H2B inh = blocks KSHV LANA binding to histone H2A/H2B. cell-free LANA-H2A/H2B peptide, fluorescence polarization. 0.6% of 320,000 active. inhibition, % (concentration not given with the values). Q9QR71; in the data active = inhibition mostly above about 10%, no sharp cut-off; inactive = mostly below about 6.7%;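 note: stock transfer was 7.5 nL into about 10 µL; 0% = median of vehicle wells and 100% = median of positive control wells; one replicate is shown; the record names a cut of 25% in any replicate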
Target sequence (Q9QR71 whole entry, looked up): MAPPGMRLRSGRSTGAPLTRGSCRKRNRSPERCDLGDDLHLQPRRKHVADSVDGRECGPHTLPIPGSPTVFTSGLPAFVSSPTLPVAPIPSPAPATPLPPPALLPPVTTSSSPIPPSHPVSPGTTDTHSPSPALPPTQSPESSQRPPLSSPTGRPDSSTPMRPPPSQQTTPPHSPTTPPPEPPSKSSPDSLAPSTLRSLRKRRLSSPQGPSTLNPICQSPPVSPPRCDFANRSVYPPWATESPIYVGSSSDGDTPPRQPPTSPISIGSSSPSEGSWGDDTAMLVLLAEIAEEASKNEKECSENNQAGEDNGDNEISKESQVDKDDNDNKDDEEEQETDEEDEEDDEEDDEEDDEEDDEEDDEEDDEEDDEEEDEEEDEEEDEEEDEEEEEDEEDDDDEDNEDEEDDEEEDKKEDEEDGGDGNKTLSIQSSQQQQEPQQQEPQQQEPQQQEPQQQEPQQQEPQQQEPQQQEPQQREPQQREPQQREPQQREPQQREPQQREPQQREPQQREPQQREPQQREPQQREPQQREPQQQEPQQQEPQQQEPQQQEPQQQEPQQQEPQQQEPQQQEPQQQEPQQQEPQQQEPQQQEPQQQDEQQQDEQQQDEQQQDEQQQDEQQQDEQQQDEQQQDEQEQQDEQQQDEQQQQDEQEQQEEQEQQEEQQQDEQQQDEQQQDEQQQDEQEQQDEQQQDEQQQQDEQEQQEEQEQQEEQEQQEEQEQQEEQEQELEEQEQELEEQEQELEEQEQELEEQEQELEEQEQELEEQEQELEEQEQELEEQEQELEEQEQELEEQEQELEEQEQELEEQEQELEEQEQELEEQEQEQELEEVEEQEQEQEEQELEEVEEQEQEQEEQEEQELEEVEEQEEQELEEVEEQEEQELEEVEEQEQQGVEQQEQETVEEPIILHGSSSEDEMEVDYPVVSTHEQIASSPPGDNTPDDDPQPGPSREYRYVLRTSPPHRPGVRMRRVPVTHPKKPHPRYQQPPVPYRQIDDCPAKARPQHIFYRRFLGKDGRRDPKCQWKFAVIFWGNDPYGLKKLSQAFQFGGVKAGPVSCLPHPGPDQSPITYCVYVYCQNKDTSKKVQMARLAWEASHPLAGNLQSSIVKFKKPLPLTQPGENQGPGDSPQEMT
RanGTP-Impb inh = inhibitors of RanGTP-importin-beta interaction, primary screen, biochemical, FRET, CFP-Ran, YFP-importin-beta, homogeneous; cell-free CFP-Ran/YFP-importin-beta FRET ratio; inhibition, % (test concentration not listed); 1.1% of 300,000 active; AID 2216;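 active = most replicates above 15%; inconclusive = exactly half above 15%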;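 note: 0% = DMSO wells and 100% = Ran loaded with GDP instead of GTP; wells of about 40 µL received 100 nL stock; the first replicate is given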
The depositor's hits bear a star; ? = inconclusive; . = no result given; & = joins results of further samples.

SMILES | A1 inh | AF4-AF9 inh | T cruzi repl | Beta apoptosis | Calb FLC | Vif TR-FRET | LANA-H2B inh | RanGTP-Impb inh
COc1ccc(Cc2nnc(NS(=O)(=O)c3ccc([N+](=O)[O-])cc3)s2)cc1 | 1.1 | 0.7 | -12 | -3 | 14 | . | 10 | 0.9
CCS(=O)(=O)N1CCN(C(=O)c2cccc(OC)c2)CC1 | 0.9 | . | -12 | . | -4 | 4% | 0.1 | ?
CC(C(=O)NC1CCCc2ccccc21)N1CCN(c2ccc(F)cc2)CC1 (stereo not drawn) | 0.1 | . | 43 | -5 | -12 | 11% | 1.6 | -1.4
Cc1cccc(NC(=O)CSc2nnc(CNC(=O)c3ccco3)o2)c1C | 0.0 | -11 | 6 | -1 | -8 | . | 1.0 | -0.3
CC(=O)c1cccc(N(CC(=O)N2CCCC2)S(C)(=O)=O)c1 | -0.3 | -27 | -17 | -1 | 2 | -4% | -3.7 | -2.8
COC(=O)[C@@]12CCCN1[C@H](c1ccc(-c3ccc(Cl)c(Cl)c3)c(OC)c1)[C@H]1C(=O)N(C)C(=O)[C@H]12 | -0.5 | 11 | . | 7 | . | . | -1.0 | .
Cc1ccc(NC(=O)O/N=C/c2cccc([N+](=O)[O-])c2)cc1 | 0.8 | -1.4 | 1 | -1 | -27 | 1% | -8.9 | 5.6
CC(C)Oc1ccc(S(=O)(=O)N2CCOCC2)cc1NC(=O)CN1C(=O)NC2(CCCC2)C1=O | -0.4 | -12 | 11 | 1 | 6 | . | 2.4 | 0.9
COc1cccc(C(=O)N(Cc2ccc(N(C)C)cc2)C2CCS(=O)(=O)C2)c1 (stereo not drawn) | -0.2 | . | -9 | -4 | -15 | 4% | 3.0 | -2.7
O=C(NN1CCOCC1)c1cccc(COc2cccc(Br)c2)c1 | 1.7 | -0.1 | 5 | 1 | 3 | -8% | 1.5 | 1.9
CCCCCCCOc1ccc(OC(=O)c2cccnc2)cc1 | 1.8 | . | 57* | 2 | -22 | 2% | 3.8 | 2.6
CCn1c(=O)n(CC)c2cc(N3CCCC3)c(NC(=O)c3ccccc3F)cc21 | 1.7 | -25 | 3 | 2 | 16 | . | 1.6 | 1.4
O=C(CN1C(=O)CSC1=O)Nc1ccc(C(=O)O)cc1 | 0.2 | . | 0 | 5 | 0 | 1% | 4.4 | -4.7
CCOC(=O)N1CCN(C(=O)CSc2ccc(-c3cccc(OC)c3)nn2)CC1 | -0.2 | -1.5 | . | 0 | 6 | -7% | -1.2 | .
Cc1cc(C(=O)NCc2ccc(S(N)(=O)=O)cc2)ccc1[N+](=O)[O-] | 0.6 | . | -8 | 1 | 1 | . | -2.7 | -0.8
Cc1nc(-c2ccccn2)sc1C(=O)O | -0.3 | -16 | 11 | 1 | -3 | -9% | -5.0 | 5.0
COCCn1c(=O)[nH]c2cc(C(=O)NCCN3CCN(c4ccccc4F)CC3)ccc2c1=O | -0.9 | . | 0 | 0 | -2 | 5% | -4.5 | 0.2
CC(C)(O)C#Cc1ccc(CN2CCC(n3nccc3NC(=O)C3CC3)CC2)cc1 | -0.7 | -0.5 | -15 | -8 | -5 | . | 0.3 | -5.6
Cc1[nH]n(-c2cccc(Cl)c2)c(=O)c1/C=N/n1c(C)nc2ccccc2c1=O | -5.5 | . | -1 | -2 | -20 | 2% | -3.3 | -3.6
Cc1onc(-c2c(F)cccc2Cl)c1C(=O)Nc1nc2ccccc2[nH]1 | -1.0 | . | 21 | 31 | 25 | -4% | -4.5 | -0.5
Cc1ccc(OCC(=O)NNC(=O)C(C)Sc2ncnc3sc(C)c(C)c23)cc1 (stereo not drawn) | . | . | -5 | -8 | -22 | -4%&-16% | 4.7 | 0.6
COc1cccc(-c2csc(N3CCN(C(=S)Nc4ccccc4C)CC3)n2)c1 | -0.1 | 4.9 | 9 | -4 | -15 | . | -3.1 | .
N#CC1=C2SCN(Cc3ccco3)CN2C(=O)CC1c1ccccc1F (stereo not drawn) | 0.2 | . | 6 | -2 | -10 | 8% | -1.0 | -0.5
O=C(CNC(=O)N1CC(=O)Nc2ccccc21)NCCc1c[nH]c2ccccc12 | 0.3 | -0.1 | -3 | . | -4 | . | -5.6 | 1.7
CC(C)(C)NCc1cc(Br)ccc1OC1CCCC1 | 0.3 | 0.1 | 28 | 1 | -14 | -4% | -0.2 | -4.9
New compounds follow.
SMILES | A1 inh | AF4-AF9 inh | T cruzi repl | Beta apoptosis | Calb FLC | Vif TR-FRET | LANA-H2B inh | RanGTP-Impb inh
O=C(CCNC(=O)c1ccccc1Cl)Nc1ccc(S(=O)(=O)Nc2nccs2)cc1 | -1.4 | -3.4 | . | 5 | . | -10% | -1.7 | .
O=C(Nc1ccc2[nH]ccc2c1)c1ccc(F)cc1 | -6.8 | 0.9 | 7 | . | 2 | . | -3.8 | -1.6
C=CCn1c(SC)nnc1-c1ccc2ncccc2c1 | 0.6 | 0.2 | -6 | 0 | -5 | . | -1.9 | -0.6
COC(=O)c1cc(COC(=O)c2nc3nccc(C)n3n2)oc1C | -0.5 | 3.0 | -10 | . | 2 | -8% | 6.2 | ?
Cc1cccc(N(C(=O)c2csnn2)C(C(=O)NC(C)(C)C)c2cccs2)c1 (stereo not drawn) | 0.1 | 5.6 | -1 | 1 | -7 | 1% | -0.8 | -4.8
CC(NC(=O)c1cc2c(s1)CS(=O)(=O)C2)c1ccccc1 (stereo not drawn) | 0.1 | 0.3 | -22 | -6 | ? | . | 0.9 | -0.8
COC(=O)C(C)Oc1ccc(-c2nccc(-c3ccccn3)n2)cc1 (stereo not drawn) | 0.2 | -2.2 | 3 | -1 | 5 | -3% | -0.5 | -1.7
Cc1c(Cl)cccc1NC(=O)CN1CCC(NC(=O)C2CCCCC2)CC1 | -0.1 | . | 11 | -4 | -4 | -5% | 5.4 | 2.2
CC(C)N(Cc1cn(C)nc1-c1cccc(Cl)c1)Cc1nccn1C | 0.1 | -6.5 | 19 | -6 | -11 | -5% | 0.3 | -2.5
Cc1ccccc1C(=O)NC(NC(=S)Nc1ccc(S(N)(=O)=O)cc1)C(Cl)(Cl)Cl (stereo not drawn) | -0.6 | . | -4 | . | -4 | . | -4.5 | -0.2
O=C(Nc1ccc(NC(=O)C2CCCCC2)nc1)c1cccc(F)c1 | . | -1.1 | 16 | . | 12 | . | . | -2.9
CCn1nnnc1-c1ccc(OC)c(S(=O)(=O)NCCc2ccccc2)c1 | 0.0 | . | -2 | -6 | 1 | -6% | 3.7 | 0.7
O=C(NCCN1CCOCC1)c1ccc(Cl)c(Cl)c1 | -1.2 | -2.1 | 5 | -3 | 1 | . | -0.2 | -6.0
CN(CC(=O)Nc1ccc(Cl)cc1)CC(=O)Nc1ccc(C(N)=O)cc1 | 0.3 | 0.1 | 0 | 1 | 16 | ? | -6.1 | -1.1
CC(C(N)=O)N1C(=O)c2cccc3cccc1c23 (stereo not drawn) | 0.2 | -2.8 | 1 | -2 | -6 | -2% | 3.0 | -2.9
COCCn1nnnc1CN(CCc1ccccc1)Cc1cc2ccc(C)cc2[nH]c1=O | 0.4 | . | 35 | 0 | . | -6%&2% | -2.7 | 1.7
CCCc1ccc(S(=O)(=O)N/N=C(/C)c2ccc3c(c2)OCO3)cc1 | 0.6 | -1.7 | -2 | -6 | -12 | . | -7.7 | -3.8
CC(=O)c1cccc(-n2c(CCC(=O)O)ccc2-c2ccc(C)cc2)c1 | -0.6 | . | -1 | . | 2 | 5% | 1.2 | 2.5
COc1ccc(-c2c(C#Cc3ccsc3)c3cc(-c4ccc(OC)c(F)c4)ccc3n2C)cc1 | 1.0 | 3.6 | . | -5 | . | . | 1.0 | .
O=C(NCCOC(=O)c1ccccc1)c1ccccc1 | 0.5 | -1.0 | . | -6 | . | . | 2.5 | .
COCC(=O)Nc1ccc(Br)c(C)c1 | -0.2 | -1.3 | -15 | -2 | 12 | 10% | -0.1 | 0.4
CN(C)c1cccc(NC(=O)CCc2ccccc2)c1 | -0.2 | . | 7 | 4 | 5 | 11% | 1.2 | 29
Cc1ccc(S(=O)(=O)NC(=O)Nc2nc(-c3ccc(F)c(F)c3)cs2)cc1 | -1.4 | -0.9 | -1 | -25 | -4 | 6% | 1.2 | 3.8
Cc1cc(C)nc(SCc2nnc(SCC(=O)Nc3nccs3)n2Cc2ccco2)n1 | 0.4 | . | 10 | -3 | -3 | 9% | 1.9 | -6.9
COc1ccccc1NC(=O)CSc1nc2nccnc2c(=O)n1Cc1cccs1 | -1.7 | 6.0 | 6 | -13 | -1 | 6% | 3.1 | -0.5
(next part)
SMILES | A1 inh | AF4-AF9 inh | T cruzi repl | Beta apoptosis | Calb FLC | Vif TR-FRET | LANA-H2B inh | RanGTP-Impb inh
COc1ccccc1N1CCN(C(=O)CCCn2nc(C)c([N+](=O)[O-])c2C)CC1 | 0.1 | -0.1 | 8 | 3 | 15 | 8% | 4.8 | -4.1
Cc1cc(OCCN2CC(C)OC(C)C2)ccc1[N+](=O)[O-] (stereo not drawn) | -0.2 | . | 8 | -8 | 0 | -2% | 4.0 | -0.2
CC(C)c1nc(SCC(=O)Nc2ccc(C(=O)O)cc2)c2c3c(sc2n1)CCCC3 | 0.2 | -2.0 | -4 | -2 | 48 | 10% | 2.2 | 4.4
Cc1ccc(N(CC(=O)NCc2ccccc2)C(=O)CCC(=O)Nc2ccccn2)cc1 | 0.8 | -5.1 | 11 | -6 | -1 | . | -1.3 | 1.8
Cc1ccccc1-c1ccc(C(=O)Nc2cccc(F)c2)o1 | -0.3 | 1.5 | -3 | -10 | -17 | 3% | -2.1 | 0.6
CC(=O)N1CCc2cc(S(=O)(=O)NCCN3CCC(C)CC3)ccc21 | 0.4 | . | -7 | -5 | -2 | 5% | -2.5 | -2.5
CC(C)(C)P(=O)(CO)c1ccccc1 (stereo not drawn) | 0.4 | . | -5 | 0 | 8 | 7% | 3.2 | -1.8
COC(=O)c1ccc(Sc2ccccc2NS(=O)(=O)c2ccc(OC)cc2)nc1 | 0.3 | . | -7 | 3 | 5 | -6% | -0.9 | 0.7
CN(C)c1nc(N)nc(CSc2nnnn2-c2ccc(F)cc2)n1 | 0.4 | 8.1 | -7 | -5 | 11 | 4% | -4.7 | ?
CC1(C)CC(C(=O)Nc2ccccc2)C(=O)O1 (stereo not drawn) | 0.1 | -5.8 | 1 | 5 | 2 | . | -2.0 | 3.9
COc1ccc(OCC(O)CNC(=O)c2ccccc2C(=O)O)cc1 (stereo not drawn) | -0.3 | . | -4 | -5 | -25 | 3% | 3.0 | -2.0
COc1ccc(N2C(=O)NC(NS(=O)(=O)c3ccc(NC(C)=O)cc3)(C(F)(F)F)C2=O)cc1 (stereo not drawn) | 1.0 | -3.9 | 12 | . | -3 | 19% | -0.5 | -2.0
Cn1c(CNC(=O)c2ccco2)nnc1SCC(=O)N1c2ccccc2Sc2ccccc21 | -0.5 | . | . | 0 | 27 | 16% | 1.6 | .
Cc1ccc(N/C(CSC(N)=O)=N\S(=O)(=O)c2ccc(C)cc2)cc1 | 0.5 | . | 0 | -3 | 14 | 2% | -1.0 | 9.5
COc1ccc(S(=O)(=O)N(C)CC(=O)N2CCN(C)CC2)cc1C | -0.1 | . | -5 | 1 | -13 | -3% | 2.5 | -0.4
